Source: PubChem BioAssay (Johns Hopkins Ion Channel Center)
KCNQ2 enhance – potentiators of rat KCNQ2 potassium channel; O88943; CHO-K1 KCNQ2, FluxOR thallium flux fluorescence; hits give high values; B-score at 10 µM; 310,000 tested, 0.54% active;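 active means fluorescence ratio B-score at least 3 SD of library B-scores, with initial fluorescence B-score within 3 SD, cut at about 5.3 in these data; same plate scores as AID 2156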;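 further: B-score of peak minus minimum over baseline fluorescence ratio after K+ and Tl+ stimulus; positive B-score means potentiation of KCNQ2 with more thallium influx and brighter signal; only the inactives scoring about 0 or higher are listed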
Target sequence (O88943 whole entry, looked up): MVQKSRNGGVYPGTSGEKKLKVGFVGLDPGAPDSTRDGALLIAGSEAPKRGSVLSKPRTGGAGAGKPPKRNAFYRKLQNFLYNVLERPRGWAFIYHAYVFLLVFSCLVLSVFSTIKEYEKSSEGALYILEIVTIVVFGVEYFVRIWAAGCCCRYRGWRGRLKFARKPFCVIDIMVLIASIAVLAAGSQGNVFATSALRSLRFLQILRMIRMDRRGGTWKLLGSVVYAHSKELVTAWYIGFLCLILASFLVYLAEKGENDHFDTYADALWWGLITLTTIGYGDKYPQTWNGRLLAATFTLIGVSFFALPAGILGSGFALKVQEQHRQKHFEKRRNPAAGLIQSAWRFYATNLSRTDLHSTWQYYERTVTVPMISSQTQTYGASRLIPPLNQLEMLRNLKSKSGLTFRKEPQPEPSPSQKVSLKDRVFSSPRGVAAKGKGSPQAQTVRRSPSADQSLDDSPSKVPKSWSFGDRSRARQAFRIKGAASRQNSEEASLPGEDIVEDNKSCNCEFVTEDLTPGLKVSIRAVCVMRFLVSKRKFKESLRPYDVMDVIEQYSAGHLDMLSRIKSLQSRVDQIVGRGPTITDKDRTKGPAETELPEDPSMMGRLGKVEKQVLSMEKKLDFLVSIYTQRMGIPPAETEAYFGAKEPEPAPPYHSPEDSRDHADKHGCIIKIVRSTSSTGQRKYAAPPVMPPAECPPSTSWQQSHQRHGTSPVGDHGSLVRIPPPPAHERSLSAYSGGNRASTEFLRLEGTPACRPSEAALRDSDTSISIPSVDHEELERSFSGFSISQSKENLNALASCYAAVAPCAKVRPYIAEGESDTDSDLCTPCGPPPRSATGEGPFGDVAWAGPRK
KCNQ2 enhance baseline – also measured in KCNQ2 enhance; calls as there; B-score; compound at 10 µM; measured here: initial fluorescence intensity artifact check;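 brightness before thallium and not channel activity; 0 = typical well and far values either way flag optical interference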
* = called active by the depositor. Only part of the results is shown; the hit share may differ from the screen's.

compound | KCNQ2 enhance | KCNQ2 enhance baseline
CCOC(=O)c1cccc(NC(=O)c2ccc(NC(=O)c3ccco3)cc2)c1 | 0.49 | 1.1
CC(C)Sc1nc(SCC(=O)O)c2c3c(sc2n1)COC(C)(C)C3 | 1.5 | 1.1
O=C(COc1ccccc1)Nc1ccccc1NS(=O)(=O)c1cccs1 | 0.97 | 0.47
CC(C)C(C(=O)NCc1ccccc1)N(CC1CCCO1)C(=O)CNS(=O)(=O)c1ccccc1 (stereo unspecified) | 0.76 | -2.4
CC(NC(=O)C1(c2cccs2)CCOCC1)c1ccccc1 (stereo unspecified) | 0.84 | -0.06
CC(C)(C)c1ccc(N2C(=O)CSC2c2cccnc2)cc1 (stereo unspecified) | 0.22 | -0.88
CCOC(=O)N1CCC(Nc2ncnc3c2cnn3-c2ccccc2)CC1 | 0.65 | -3.4
O=C1Nc2ccccc2C(O)(C(=O)NC2CC2)N1c1ccc(Cl)c(Cl)c1 (stereo unspecified) | 0.25 | -0.64
NC(=O)c1ccsc1NC(=O)c1cccs1 | 0.8 | -0.1
O=C(NNC(=O)C1CC1c1ccccc1)Nc1cccc(Cl)c1 (stereo unspecified) | 0.07 | -0.33
Cc1cccc(OCc2nnc(NC(=O)Cc3cccs3)s2)c1 | 1.5 | 0.25
Cc1cccc(NCC(=O)N/N=C/c2ccc(Br)cc2)c1 | 0.39 | 1.4
Cc1ccc(OCCn2c(Br)nc3c2c(=O)n(C)c(=O)n3C)cc1 | 1.9 | -0.07
COc1cccc(-n2nnc3c(=O)n(CC(=O)OCc4ccccc4)cnc32)c1 | 0.01 | 1.6
CN(C)C(CNC(=O)Cc1cccc(C(F)(F)F)c1)c1ccco1 (stereo unspecified) | 3.9 | 0.14
C=CCOc1ccc(CN(C)CC(=O)Nc2ccc3c(c2)CCC3)cc1 | 1.4 | -0.63
O=C(Nc1ccc(N2CCCCC2)cc1)c1cc(S(=O)(=O)N2CCOCC2)ccc1F | 0.51 | 0.02
CS(=O)(=O)N(CC(=O)NC1CC2CCC1C2)c1cccc(C(F)(F)F)c1 (stereo unspecified) | 2.2 | 1.2
CN1CCN(c2nc(-c3ccc(Cl)cc3Cl)nc3ccccc23)CC1 | 0.21 | -1
CCC1(C)NC(C(=O)O)Cc2c1[nH]c1ccccc21 (stereo unspecified) | 0.45 | 0.6
CCOCCCN(C(=O)CNC(=O)c1ccco1)C(C(=O)NC1CCCC1)c1ccccc1C (stereo unspecified) | 0.16 | 0.84
CCOc1ccc(NCc2cc3c(C(C)(C)C)nn(-c4ccccc4)c3[nH]c2=O)cc1 | 2 | -0.03
Cc1ccc(NC(=O)NNC(=O)C2CC(c3cccs3)=NO2)cc1 (stereo unspecified) | 1.2 | -0.75
CN(C)S(=O)(=O)c1ccc(Oc2ccc(S(=O)(=O)N(C)C)cc2)cc1 | 1.1 | 0.28
COc1ccc(/C=C2/SC(=O)N(CCC(=O)Nc3ccc(S(=O)(=O)Nc4nccs4)cc3)C2=O)cc1 | 0.01 | -0.13
Cc1ccccc1C(=O)NNC(=O)CSc1nnc(-c2ccncc2)n1-c1ccccc1 | 0.79 | -0.14
COc1ccc(S(=O)(=O)NCc2ccccn2)cc1NC(=O)c1ccccc1C | 0.43 | 1.6
CCOC(=O)N1CCN(C(=O)CS(=O)(=O)Cc2nc(-c3ccccc3F)oc2C)CC1 | 0.89 | -2.2
Cc1sc(NC(=O)/C=C/c2ccco2)c(C(=O)O)c1C | 1.4 | 0.68
O=C(NC1CCN(Cc2ccc(F)cc2)CC1)c1ccccc1 | 0.69 | 0.2
CCn1nc(C)c(CN2CCCC(CO)(Cc3ccccc3)C2)c1C (stereo unspecified) | 2.1 | -0.07
Cc1nc(SCc2ccc(C(=O)O)cc2)nc2c1CCCC2 | 0.04 | 1.9
O=C(COc1ccc2c3c(c(=O)oc2c1)CCC3)N1CCCC1 | 1.3 | 1
CCOc1ccc(N=Nc2cc(C(C)C)ccc2O)cc1 | 2.3 | -0.33
O=S(=O)(NC(=NCc1ccccc1)c1ccccc1)c1ccc(Br)cc1 | 0.12 | -1.4
COc1ccc(N(CC(=O)N2CCN(c3ccccc3)CC2)S(=O)(=O)c2c(C)noc2C)cc1 | 0.26 | -0.59
Cc1nc2ccccc2c(=O)n1NC(=O)c1ccc(Cl)c(Cl)c1 | 0.96 | 1.8
CC(NC(=O)c1ccc2c(c1)S(=O)(=O)N=C1CCCCCN12)c1ccc(S(N)(=O)=O)cc1 (stereo unspecified) | 0.79 | 0.56
N=c1c2c(n(Cc3ccc(F)cc3)c3c1CCC3)CCCC2 | 1.7 | 0.35
C=CCN(C(=O)c1ccc(Cl)cc1)c1ccccc1C(=O)NCC(=O)O | 0.66 | -0.62
Cc1cc(C)c(S(=O)(=O)N2CCOC2CNC(=O)C(=O)NCc2ccncc2)c(C)c1 (stereo unspecified) | 0.04 | 0.6
CN(C)CCCNC(=O)c1ccc2[nH]c3ccccc3c2c1 | 0.45 | 0.13
CC(OC(=O)CN1C(=O)C2CCCCC2C1=O)C(=O)Nc1ncc(Cl)cc1Cl (stereo unspecified) | 1.1 | -1.4
CCCCn1c(N)c(N(CC)C(=O)c2ccccc2F)c(=O)[nH]c1=O | 1.1 | 2.6
Cc1ccc(NC(=O)CNc2cccc(S(=O)(=O)N3CCCC3)c2)cc1F | 5.5* | -0.2*
CCOc1ccc(-n2c(-c3ccco3)nc3c(cnn3-c3ccc(C)cc3)c2=O)cc1 | 0.75 | -0.03
Nc1ccc(CCS(N)(=O)=O)cc1 | 2.3 | 0.81
CC(C)(C)C1CCc2c(sc3nc(SCC(N)=O)nc(N)c23)C1 (stereo unspecified) | 4.8 | -0.68
CCCCN(C)S(=O)(=O)c1ccc(C(=O)Nc2nnc(-c3cccs3)o2)cc1 | 1.5 | 0.13
O=C(Nc1nccs1)c1ccc(-c2ccccc2Cl)o1 | 1.5 | -1.4
CCS(=O)(=O)N1CCN(c2ncnc3sc(C)c(C)c23)CC1 | 0.17 | 0.92
COc1ccc(C)cc1NC(=O)COC(=O)c1ccc([N+](=O)[O-])o1 | 0.31 | 0.84
CN=C1SC(CC(=O)Nc2cccc(C(F)(F)F)c2)C(=O)N1C (stereo unspecified) | 0.17 | -0.29
Cc1csc2nc(CNC(=O)CCC(=O)O)cn12 | 0.2 | -0.25
CC(=O)O/N=C(/c1nonc1N)N(C)C | 0.21 | -1
CCc1cc(=O)oc2cc(OC(C)C(=O)NCC(O)c3ccccc3)c(Cl)cc12 (stereo unspecified) | 1.5 | 0.57
Cc1ccc(S(=O)(=O)NCc2ccccc2)cc1C(=O)N1CCCCC1 | 1.6 | -0.95
Cc1cc(NS(=O)(=O)c2ccc(NC(=O)c3cc(-c4ccccc4Cl)nc4ccccc34)cc2)no1 | 0.5 | -0.52
Cc1ccc(NC(=O)CCN2C(=O)c3ccncc3C2=O)cc1 | 0.32 | -1.8
NS(=O)(=O)c1cccc(NC(=O)COc2ncnc3c2cnn3-c2ccccc2)c1 | 1.6 | -0.19

Random excerpt: seven entries already listed, in no set order.
compound | KCNQ2 enhance | KCNQ2 enhance baseline
CCCCN(C)S(=O)(=O)c1ccc(C(=O)Nc2nnc(-c3cccs3)o2)cc1 | 1.5 | 0.13
CCOc1ccc(-n2c(-c3ccco3)nc3c(cnn3-c3ccc(C)cc3)c2=O)cc1 | 0.75 | -0.03
Cc1ccc(S(=O)(=O)NCc2ccccc2)cc1C(=O)N1CCCCC1 | 1.6 | -0.95
NS(=O)(=O)c1cccc(NC(=O)COc2ncnc3c2cnn3-c2ccccc2)c1 | 1.6 | -0.19
CC(=O)O/N=C(/c1nonc1N)N(C)C | 0.21 | -1
Cc1csc2nc(CNC(=O)CCC(=O)O)cn12 | 0.2 | -0.25
CC(C)(C)C1CCc2c(sc3nc(SCC(N)=O)nc(N)c23)C1 (stereo unspecified) | 4.8 | -0.68

Additional compounds follow.
The line under a structure holds: KCNQ2 enhance	KCNQ2 enhance baseline
- COc1ccc(S(=O)(=O)N2CCOC2CNC(=O)C(=O)NCc2ccc3c(c2)OCO3)cc1OC (stereo unspecified)
  0.26	-0.01
- CCc1ccc(S(=O)(=O)NCc2cn3ccccc3n2)s1
  0.38	0.12
- NS(=O)(=O)c1ccc(CCNC(c2ccccc2)c2ccccc2)cc1
  0.51	-0.63
- CCc1nnc(NS(=O)(=O)c2ccc(NC(=O)c3ccc(Br)cc3)cc2)s1
  1.2	0.12
- Cc1ccc(C(=O)CCC(=O)OCc2nnc(-c3ccccc3)o2)cc1
  1.3	0.43
- O=S(=O)(NCCN1CCCC1)c1cccc2cccnc12
  2	-1.4
- Cc1ccc(NC(=O)Cn2cnc3c(nnn3Cc3ccc(F)cc3)c2=O)cc1
  0.2	-0.54
- Cc1ccc(NC(=O)c2nc[nH]c2C(=O)N2CCN(c3ccccc3)CC2)cc1
  1	-1.8
- Nc1nc(SCc2ccccc2)ns1
  0.76	-0.14
- Cc1ccc2[nH]c(=O)c(CN(C(=O)c3cccc([N+](=O)[O-])c3)C(C)(C)C)cc2c1
  0.24	0.25
- O=C(CCCCCn1c(=S)[nH]c2cc3c(cc2c1=O)OCO3)N1CCN(C2CCCCC2)CC1
  1.7	0.86
- CCOc1ccc(Cn2c(O)cc(=O)[nH]c2=O)cc1
  1.3	-0.94
- CC(C)OC(=O)CSc1nc2ncc(Cl)cc2[nH]1
  0.66	-3.8
- CCOC(=O)c1sc(/N=C/c2c(C)[nH]n(-c3ccccc3)c2=O)c(C#N)c1C
  0.68	0.4
- CCOC(=O)c1ccc(C(=S)N2CCCC2)cc1
  0.41	-0.05
- CC(C)CN(C(=O)CSc1nnc(-c2cccs2)n1N)c1c(N)n(Cc2ccccc2)c(=O)[nH]c1=O
  0.09	-1
- COc1ccccc1CC(=O)NC1CC1
  1.1	-0.06
- CCOc1ccc(S(=O)(=O)N2CCCC(C(=O)N3CCC(C(N)=O)CC3)C2)cc1Cl (stereo unspecified)
  0.75	1.7
- CCOc1ccccc1NC(=O)NNC(=O)CCc1ccc(OC)cc1
  0.28	0.67
- C/C(=N\N=C(/C)c1cccc(N)c1)c1cccc(N)c1
  0.3	0.09
- CCn1c(NC(=O)C(C)C)c(-c2ccccc2)c(=O)c2ccccc21
  0.65	-0.17
- COc1ccc(CC2(CO)CCN(S(=O)(=O)c3c(C)nn(C)c3C)CC2)cc1
  0.58	-2.3
- Cc1nnsc1C(=O)NC1CCCc2c1cnn2-c1ccccc1F (stereo unspecified)
  1.8	-0.39
- C(#Cc1ccc(C#CCN2CCOCC2)cc1)CN1CCOCC1
  0.73	-1.2
- Cn1cnc([N+](=O)[O-])c1Oc1ccccc1
  1.1	0.65
- Cc1ccc(S(=O)(=O)N(c2ccccc2)C2CCS(=O)(=O)C2)cc1 (stereo unspecified)
  0.06	0.09
- CC(C)C(=O)Nc1ccc(C(=O)NN2C(=O)c3ccccc3C2=O)cc1
  1.2	-0.6
- CCOC(=O)CCCNS(=O)(=O)c1c(C)ccc2nsnc12
  0.32	0.87
- COCCNC(=O)c1cnn2c(C(F)(F)F)cc(-c3ccc(C)cc3)nc12
  0.71	-0.27
- COc1ccc(S(=O)(=O)N(CC(=O)N2CCCC2)Cc2ccccc2)cc1
  0.03	-2.2
- O=C(N/N=C/c1ccccn1)c1cc(-c2ccc(Cl)cc2)nc2ccccc12
  9.6*	-2.8*
- COc1ccccc1C(CNC(=O)c1ccc(NS(=O)(=O)c2ccc(F)c(C)c2)cc1)N1CCCC1 (stereo unspecified)
  1.6	-0.28
- COc1ccc(OC)c(/C=C/c2c([N+](=O)[O-])c(=O)n(C)c(=O)n2C)c1
  0.2	0.51
- Cc1ccc(NC(=S)N2CCC(c3nc4ccccc4s3)CC2)cc1C
  0.11	-0.11
- COC(=O)N/N=C/c1cc(C)n(-c2ccc(Br)cc2)c1C
  2.1	-1.8
- Cc1cccc(CN2C(=O)N/C(=C/c3cc(C)n(-c4ccccn4)c3C)C2=O)c1
  1	-0.68
- CC(C)(C)NC(=O)NC(=O)COC(=O)c1ccco1
  0.61	-0.1
- Nc1ccc(C(=O)OCc2ccncc2)cc1[N+](=O)[O-]
  0.09	-1.5
- CCOC(=O)c1ccc(NC(=S)N2CCCC(C(=O)N3CCCC3)C2)cc1 (stereo unspecified)
  0.39	0.01
- CCOc1nsc(OCC)n1
  0.07	-2
- CCc1ccccc1NC(=O)CCc1c(C)nn(-c2ccc(N3CCOCC3)nn2)c1C
  0.17	-1.3
- Cc1nc(N/N=C/c2cccc(F)c2)cc(N2CCOCC2)n1
  2.4	-0.29
- Cc1ccc(NC(=O)C2COc3ccccc3O2)c(C)c1 (stereo unspecified)
  0.96	0.73
- OCCC1CN(CC2CCCCC2)CCN1CC1CCCCC1 (stereo unspecified)
  6.8*	0.73*
- Cc1cc(C)n(-c2nc3ccccc3n3cnnc23)n1
  1.9	3
- S=C(NCCOCCOCCNC(=S)Nc1ccccc1)Nc1ccccc1
  1.4	0.3
- Cc1ccccc1NC(=O)Cn1c(=O)n(-c2ccc(CC(=O)NCC3CCCO3)cc2)c(=O)c2ccccc21 (stereo unspecified)
  0.4	-1.1
- N#Cc1nc(-c2ccc(OCc3ccccc3)cc2)oc1NCCN1CCOCC1
  0.19	-0.69
- CCCN1CCN(C(=O)Cn2nc(C)n3c(cc4sccc43)c2=O)CC1
  1.2	0.53
- Cc1nn2cc(-c3ccccc3)nc2[nH]c1=O
  0.23	0.34
- Cc1c(N2C(=O)c3cccc4cccc(c34)C2=O)c(=O)n(-c2ccccc2)n1C
  0.04	0.65
- Cc1ccc(-n2c(=S)[nH]c3nc4c(cc3c2=O)COC(C)(C)C4)cc1
  0.07	-0.16

Some of these compounds in order of the KCNQ2 enhance value, ascending:
The line under a structure holds: KCNQ2 enhance	KCNQ2 enhance baseline
- Cc1ccc(-n2c(=S)[nH]c3nc4c(cc3c2=O)COC(C)(C)C4)cc1
  0.07	-0.16
- CN(C)S(=O)(=O)c1ccc(Oc2ccc(S(=O)(=O)N(C)C)cc2)cc1
  1.1	0.28
- Cc1cc(C)n(-c2nc3ccccc3n3cnnc23)n1
  1.9	3
